Compound activity deposited in PubChem BioAssay by Broad Institute.
DUX4 txn inh = blocks DUX4-driven transcriptional activation. 293T-iDUX4 ZSCAN4-Gaussia luciferase reporter, 24 h; stronger effect = lower value. activity change, negative = inhibition, % (test concentration not listed). 37,000 tested, 0.8% active;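 active = -10% or lower and over 25 points stronger than a control reporter; inconclusive = -10% or lower with a smaller gap; inactive = above -10%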;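 also: 0% = median of neutral control wells and -100% = median of positive control wells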
DUX4 txn inh difference = further read-out of DUX4 txn inh, marked with its call; Gaussia minus Italica difference, %; measured here: selective DUX4 reporter inhibition;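 worked out from the two reporters; negative = selective loss of the DUX4 reporter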
DUX4 txn inh control = recorded beside DUX4 txn inh, whose call it bears; activity change, negative = inhibition, %; measured here: Italica tet-on control reporter;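 0 = neutral control and -100 = positive control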
Active calls of the source: *; ? = inconclusive; . = not tested or not shown. A portion of the library, so the mix of outcomes need not match the whole.

entry	DUX4 txn inh	DUX4 txn inh difference	DUX4 txn inh control	canonical_smiles
1	9.3	3.8	5.5	COCC(=O)Nc1ccc2c(c1)[C@@H]1C[C@H](CC(=O)NCC(F)(F)F)O[C@H](CO)[C@@H]1O2
2	-3.4	-2.8	-0.5	C[C@@H]1CN([C@@H](C)CO)C(=O)c2ccccc2-c2ccccc2CO[C@@H]1CN(C)C(=O)[C@H](C)c1ccccc1
3	-1.3	-2.1	0.7	CCCC#Cc1ccc2c(c1)O[C@@H](CN(C)Cc1ccccn1)[C@@H](C)CN([C@@H](C)CO)S2(=O)=O
4	4.1	0.4	3.7	CC(=O)N1[C@@H]2c3ccc(-c4cccnc4)c(=O)n3C[C@@H]2[C@@H](CO)[C@@H]1C(=O)N1CCc2ccccc2C1
5	-1.7	-3.2	1.4	CC(C)C#Cc1cnc2c(c1)C(=O)N([C@@H](C)CO)C[C@@H](C)[C@@H](CN(C)C(=O)Nc1ccccc1F)O2
6	-0.5	-4.4	3.9	O=C(C1CCCC1)N1CC2(C1)[C@@H](c1ccccc1)[C@@H](CO)N2C(=O)CC1CC1
7	?	.	.	O=C(C[C@H]1CC[C@H]2[C@@H](COC[C@H](O)CN2Cc2ccc(Oc3ccccc3)cc2)O1)N1CCCCC1
8	-7.4	4.2	-11.6	O=C(C[C@H]1CC[C@@H]2[C@H](COC[C@@H](O)CN2S(=O)(=O)c2ccccc2)O1)NCc1ccc(-c2ccccc2)cc1
9	14.7	6.1	8.5	COc1cccc(-c2ccc([C@H]3[C@@H](CO)N4CCCCN(S(=O)(=O)c5cn(C)cn5)C[C@@H]34)cc2)c1
10	0.4	0.1	0.3	CN1C(=O)c2cc(NC(=O)C3CCOCC3)ccc2OC[C@H]2O[C@@H](CC(=O)NCC3CCCCC3)CC[C@@H]21
11	10.6	2.8	7.8	COc1ccc2c3c(n(C)c2c1)[C@H](CO)N(C(=O)C1CCOCC1)CC31CCN(C(=O)c2ccncc2)CC1
12	2.2	2.2	0.0	CO[C@H]1CN(C)C(=O)c2cc(NC(=O)C3CC3)ccc2OC[C@H](C)N(C(=O)CN2CCOCC2)C[C@H]1C
13	16.4	7.2	9.2	CN1c2ccc(Br)cc2[C@H]2[C@H](CCN2S(=O)(=O)c2ccc(F)cc2)[C@@H]1CO
14	-2.4	14.2	-16.6	O=C(Nc1nccs1)[C@H]1[C@H](CO)[C@H]2Cn3c(ccc(-c4cncnc4)c3=O)[C@H]2N1CC1CCCC1
15	-4.0	-4.1	0.0	COc1cccc(-c2ccc(C3[C@@H]4CN(C(=O)Nc5ccc(F)cc5)C[C@H]3N4)cc2)c1 (some centres not stated)
16	-1.5	-0.9	-0.6	CCCNC(=O)N1[C@H](C#N)[C@@H](c2ccc(C3=CCCCC3)cc2)[C@@H]1CO
17	-4.4	-2.9	-1.5	COc1cccc(-c2cn(CC[C@@H]3CC[C@@H](NS(=O)(=O)c4ccccc4Cl)[C@H](CO)O3)nn2)c1
18	-0.6	-5.6	5.0	CO[C@@H]1CN(C)C(=O)c2ccc(NC(=O)C3CC3)cc2OC[C@H](C)N(C(C)=O)C[C@@H]1C
19	3.9	-0.4	4.2	COc1cccc(-c2ccc([C@H]3[C@@H](CO)N(C(=O)Cc4ccccc4)[C@H]3C#N)cc2)c1
20	3.2	-3.8	7.0	CCCNC(=O)[C@H]1[C@H](CO)[C@H]2Cn3c(ccc(-c4ccccc4F)c3=O)[C@H]2N1C(C)=O
21	6.7	0.3	6.4	O=C(C1CCOCC1)N1[C@@H](CO)[C@H](c2ccccc2)C12CN(CCC(F)(F)F)C2
22	?	.	.	O=C(CC1CC1)N1[C@H](CO)[C@H](c2ccccc2)C12CN(Cc1cc(F)ccc1F)C2
23	1.3	5.2	-3.8	O=C(C[C@@H]1CC[C@@H]2[C@H](COC[C@H](O)CN2Cc2nccs2)O1)NCc1ccccc1Cl
24	-0.1	-1.7	1.6	CN1CCN(C(=O)[C@@H]2[C@@H](CO)[C@@H]3Cn4c(cccc4=O)[C@@H]3N2Cc2ccccc2F)CC1
25	0.2	1.6	-1.4	C[C@@H]1CCCCO[C@H](CN(C)C(=O)Nc2ccc(F)cc2)[C@@H](C)CN([C@H](C)CO)C(=O)c2cc(NC(=O)NC3CCCCC3)ccc2O1
26	8.8	5.0	3.8	CCS(=O)(=O)Nc1ccc2c(c1)C(=O)N(C)C[C@@H](OC)[C@@H](C)CN(CC1CCCCC1)[C@@H](C)CO2
27	5.6	8.9	-3.3	O=C(C[C@@H]1C=C[C@H](NC(=O)Cc2ccccn2)[C@@H](CO)O1)NCCc1ccncc1
28	-0.2	3.0	-3.2	C[C@@H]1CN([C@@H](C)CO)C(=O)c2cccc(NC(=O)Nc3ccc(F)cc3)c2O[C@@H]1CN(C)S(=O)(=O)c1ccc(Cl)cc1
29	-1.5	-1.0	-0.5	COc1ccc(NC(=O)N(C)C[C@H]2Oc3ccc(N(C)C)cc3C(=O)N([C@H](C)CO)C[C@@H]2C)cc1
30	0.4	-0.3	0.7	C[C@@H]1CN([C@@H](C)CO)C(=O)c2cc(N(C)C)ccc2O[C@@H](C)CCCCO[C@@H]1CN(C)S(=O)(=O)c1cn(C)cn1
31	5.1	0.4	4.7	O=C(C1CCC1)N1CC(=O)N2[C@@H](CO)[C@@H](c3ccc(Br)cc3)[C@@H]2C1
32	-2.0	-5.3	3.3	CCCNC(=O)N1CCC2(CC1)CN(Cc1cccc(OC)c1)[C@H](CO)c1[nH]c3cc(OC)ccc3c12
33	0.0	-4.3	4.3	CCc1csc(N2[C@H](CO)[C@H](c3ccc(-c4ccc(F)cc4)cc3)[C@@H]2C#N)n1
34	-7.0	3.1	-10.0	CN1c2ccc(-c3cccc(F)c3)cc2[C@H]2[C@H](CCN2C(=O)C2CCC2)[C@H]1CO
35	-0.1	-1.8	1.8	CC(C)NC(=O)Nc1ccc2c(c1)C(=O)N(C)[C@@H]1CC[C@H](CC(=O)NCc3ccc(F)cc3)O[C@H]1CO2
36	3.7	-1.1	4.7	Cc1ccc(CN2CC(=O)N3[C@H](C2)[C@@H](c2ccc(-c4ccccc4F)cc2)[C@@H]3CO)cc1
37	-2.2	-0.9	-1.3	Cc1ccc(S(=O)(=O)Nc2ccc3c(c2)CC(=O)N([C@H](C)CO)C[C@@H](C)[C@@H](CN(C)S(=O)(=O)c2ccccc2)O3)cc1
38	1.9	3.7	-1.8	O=C(C[C@H]1C[C@@H]2c3cc(NC(=O)C4CCOCC4)ccc3O[C@@H]2[C@@H](CO)O1)NCc1cc(F)ccc1F
39	-0.8	-8.0	7.3	COc1ccc2c3c([nH]c2c1)[C@@H](CO)N(S(C)(=O)=O)CC31CCN(C(=O)c2ccccc2)CC1
40	1.3	-1.7	2.9	CCCN1[C@H](C(=O)OC)[C@@H](CO)[C@@H]2Cn3c(ccc(-c4cccnc4)c3=O)[C@@H]21
41	-0.3	4.0	-4.3	C[C@H]1CCCCO[C@@H](CN(C)C(=O)Nc2ccc(C(F)(F)F)cc2)[C@@H](C)CN([C@@H](C)CO)C(=O)c2cc(NS(=O)(=O)c3cn(C)cn3)ccc2O1
42	-2.5	-4.1	1.6	COc1ccc(C#Cc2ccc3c(c2)O[C@@H](CN(C)C(=O)NC2CCCCC2)[C@H](C)CN([C@@H](C)CO)S3(=O)=O)cc1
43	-2.1	-4.4	2.3	C[C@H](CO)N1C[C@H](C)[C@@H](CN(C)C(=O)Cc2ccccn2)Oc2ncc(-c3cccc(C(=O)N(C)C)c3)cc2C1=O
44	2.0	0.0	2.0	CNC[C@H]1OCCCC[C@H](C)Oc2ccc(NS(=O)(=O)c3cn(C)cn3)cc2C(=O)N([C@H](C)CO)C[C@@H]1C
45	3.5	1.2	2.3	C[C@H](NC(=O)C[C@H]1C[C@H]2c3cc(NC(=O)C4CCOCC4)ccc3O[C@H]2[C@@H](CO)O1)c1ccccc1
46	-46.9*	-28.6*	-18.3*	COc1ccc(C#Cc2ccc3c(c2)[C@H]2[C@H](CCN2Cc2nccs2)[C@@H](CO)N3)cc1
47	-2.8	-2.5	-0.3	Cc1noc(C)c1S(=O)(=O)N(C)C[C@H]1Oc2c(NS(=O)(=O)c3cn(C)cn3)cccc2C(=O)N([C@@H](C)CO)C[C@H]1C
48	-2.5	-1.3	-1.2	C[C@H]1CN([C@@H](C)CO)C(=O)c2cc(-c3cccnc3)cnc2O[C@H]1CN(C)C(=O)c1ccccc1F
49	?	.	.	Cc1ccc(S(=O)(=O)N2C[C@H](O)COC[C@H]3O[C@@H](CC(=O)NCC4CCCCC4)CC[C@@H]32)cc1
50	-3.5	-1.7	-1.8	C[C@H](CO)N1C[C@H](C)[C@@H](CN(C)S(=O)(=O)c2ccccc2F)OCc2cnnn2CCCC1=O
51	7.2	-0.3	7.5	Cc1noc(C)c1NC(=O)N1C[C@H](O)COC[C@@H]2O[C@@H](CC(=O)N[C@H]3CCN(Cc4ccccc4)C3)CC[C@H]21
52	4.5	-0.6	5.0	O=C(O)C[C@@H]1C[C@@H]2c3cc(NC(=O)Nc4ccccc4)ccc3O[C@@H]2[C@H](CO)O1
53	4.5	-3.0	7.5	CN(C)CC#Cc1ccc([C@H]2[C@@H](CO)N3CCCCN(CC4CCOCC4)C[C@@H]23)cc1
54	-0.4	-1.3	1.0	COc1ccc(S(=O)(=O)N[C@H]2CC[C@@H](CC(=O)O)O[C@H]2CO)cc1
55	13.8	18.7	-4.9	CCCNC(=O)N1[C@@H]2CNC[C@H]1C2c1ccc(-c2ccc(C#N)cc2)cc1 (some centres not stated)
56	13.9	15.9	-2.0	CC1C=NC(S(=O)(=O)N2CC[C@H]3[C@@H](CO)N(C)c4ccc(-c5ccccc5F)cc4[C@H]32)=N1 (some centres not stated)
57	0.0	-7.5	7.5	O=C(C1CC1)N1CCCCN2[C@@H](CO)[C@H](c3ccc(-c4cccc(F)c4)cc3)[C@@H]2C1
58	4.9	3.2	1.7	Cc1noc(C)c1NC(=O)N1C[C@@H](O)COC[C@H]2O[C@@H](CC(=O)NCC3CC3)CC[C@@H]21
59	?	.	.	O=C(Nc1ccccc1F)N1CCCCN2[C@H](CO)[C@H](c3ccc(/C=C/c4ccccc4)cc3)[C@H]2C1
60	-3.7	-5.5	1.8	N#C[C@@H]1[C@@H](c2ccc(C#Cc3cccnc3)cc2)[C@@H](CO)N1C(=O)C1CCCCC1

Next part:
entry	DUX4 txn inh	DUX4 txn inh difference	DUX4 txn inh control	canonical_smiles
61	7.5	4.7	2.8	CNC[C@@H]1OCCCC[C@H](C)Oc2ccc(NC(=O)c3ccncc3)cc2C(=O)N([C@@H](C)CO)C[C@@H]1C
62	0.0	-0.8	0.8	C/C=C/c1ccc([C@@H]2[C@@H](CNC(=O)c3ccncc3)N(C(C)=O)[C@H]2CO)cc1
63	-0.8	1.4	-2.2	C[C@@H]1CN([C@@H](C)CO)C(=O)c2cc(C#CCN(C)C)cnc2O[C@@H]1CN(C)Cc1cccc(C(=O)O)c1
64	0.5	1.0	-0.5	C[C@H]1CN([C@@H](C)CO)C(=O)c2cc(NC(=O)NC3CCCCC3)ccc2O[C@@H]1CN(C)S(C)(=O)=O
65	?	.	.	CO[C@H]1CN(C)C(=O)c2cc(NC(=O)c3ccc4c(c3)OCO4)ccc2OC[C@@H](C)N(CCC(F)(F)F)C[C@H]1C
66	0.4	0.4	0.0	C[C@@H]1CN([C@H](C)CO)C(=O)c2cc(C3=CCCC3)cnc2O[C@H]1CN(C)C(=O)NC1CCCC1
67	-9.4	-8.0	-1.4	O=C(NCCc1ccccc1)[C@H]1[C@H](CO)[C@H]2Cn3c(ccc(-c4cccc(F)c4)c3=O)[C@@H]1N2
68	0.5	-6.5	7.0	COCCNC(=O)[C@H]1[C@H](CO)[C@H]2Cn3c(ccc(-c4ccc(F)cc4)c3=O)[C@@H]1N2C(=O)NC(C)C
69	0.0	-3.9	3.9	C[C@H](CO)N1C[C@H](C)[C@@H](CN(C)Cc2cccnc2)OCc2cnnn2CCCC1=O
70	2.2	-1.0	3.2	CN1C(=O)c2cc(NC(=O)c3ccc4c(c3)OCO4)ccc2OC[C@@H]2O[C@H](CC(=O)O)CC[C@H]21
71	5.7	6.3	-0.6	CCNC(=O)[C@H]1[C@H](CO)[C@H]2Cn3c(ccc(C4=CCCC4)c3=O)[C@H]2N1C(=O)CC1CC1
72	11.7	5.8	5.9	O=C(C[C@@H]1C[C@H]2c3cc(NC(=O)Cc4ccncc4)ccc3O[C@H]2[C@H](CO)O1)NCc1ccc2c(c1)OCO2
73	-5.9	-7.0	1.0	COC(=O)C[C@@H]1CC[C@H]2[C@H](COc3ccc(NS(=O)(=O)c4ccccc4Cl)cc3C(=O)N2C)O1
74	11.4	2.0	9.4	CN(C)CC(=O)N1[C@@H](C#N)[C@@H](c2ccccc2-c2ccc(C(=O)N(C)C)cc2)[C@@H]1CO
75	10.1	8.4	1.6	O=C(CCN1CCCCC1)NCC[C@H]1CC[C@@H](NS(=O)(=O)c2cccc(Cl)c2)[C@H](CO)O1
76	1.2	-3.2	4.5	CCCNC(=O)C[C@H]1CC[C@H]2[C@@H](COc3ccc(NC(=O)c4ccc(Cl)cc4)cc3C(=O)N2C)O1
77	2.5	-9.3	11.7	O=C(N[C@@H]1CC[C@@H](CCNS(=O)(=O)c2ccccc2Cl)O[C@H]1CO)c1ccc(F)cc1
